Source: PubChem BioAssay
Rce1 inh: blocks yeast Ras-converting enzyme; 0.27% of 290,000 active; yeast membranes, quenched prenylated peptide cleavage fluorescence; calls only; Q03530;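 active = fall in fluorescence gain of 50% or more versus controls, with final raw signal at or below 3038400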;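 note: plate controls were neutral control wells for no effect and wells lacking membranes for full effect; tested at 10 µM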
CSC inhib: cancer stem cell inhibition; cancer stem cell-like cells viability, luminescence; inhibition, % at 7.5 µM; 1.1% of 300,000 active; AID 2717;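 active = mean at 75% or more and at least half the replicates too; tested in HMLE shEcad cells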;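 note: 0% = median of negative and 100% = median of positive control wells; the first replicate is given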
eIF4H inh: inhibitors of RNA binding by human eIF4H. eIF4H fluorescence polarization binding assay. inhibition, % at 35 µM. 0.94% of 290,000 active;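 active = 50% or more with normal probe brightness, or confirmed in later tests; about a fifth of its hits are not listed in these tables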;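 note: calls also rest on retests at 20 µM and on dose response follow-up; 0% = protein and probe with vehicle and 100% = probe without protein; strong numbers were not always called active; many hits fall short of the cut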
MT1-MMP act inh: MT1-MMP (human) activation inhibition; HT1080 RFP-PRO-GFP cells, GFP/RFP ratio fluorescence, overnight; percent of plate control window, DMSO zero; GFP/RFP ratio change, % at 20 µM; 0.061% of 360,000 active; AID 651647;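 active = GFP/RFP ratio change of at least 30% with cell ATP level not reduced by more than half and red fluorescence within 50% of control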; note: strong numbers were not always called active
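system = RFP-PRO-GFP reporter HT1080 cells | dosing = 20 µM single dose, 1% DMSO | timing = overnight cell settling, then overnight compound exposure, 37 °C, 5% CO2 | read-out basis = GFP/RFP fluorescence ratio | controls = DMSO and RFP-L50D-GFP cell wells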
UUG fidelity: alters start codon recognition fidelity in yeast; S. cerevisiae UUG-firefly luciferase reporter, luminescence/redox ratio; activity score, % at 18.7 µM; 0.13% of 350,000 active; AID 602363;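 active = replicate mean at a twofold rise or more, about +100% in these data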;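 note: firefly luciferase made from a UUG start codon reports start codon fidelity; reporter light over untreated wells divided by growth signal over untreated wells; some hits fall short of that in this replicate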
PABP FP inh: blocks human PABP binding to poly(A) RNA | fluorescence polarization | P11940 | inhibition, % at 35 µM | 1% of 290,000 active;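 active = 50% or more with normal probe brightness, or confirmed in later tests; about a fifth of its hits are not listed in these tables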;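 note: calls also rest on retests at 20 µM and on dose response follow-up; controls were probe without protein and protein plus probe with vehicle; some compounds called inactive have numbers as strong as hits; many hits fall short of the cut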
Target sequence (P11940 whole entry, looked up): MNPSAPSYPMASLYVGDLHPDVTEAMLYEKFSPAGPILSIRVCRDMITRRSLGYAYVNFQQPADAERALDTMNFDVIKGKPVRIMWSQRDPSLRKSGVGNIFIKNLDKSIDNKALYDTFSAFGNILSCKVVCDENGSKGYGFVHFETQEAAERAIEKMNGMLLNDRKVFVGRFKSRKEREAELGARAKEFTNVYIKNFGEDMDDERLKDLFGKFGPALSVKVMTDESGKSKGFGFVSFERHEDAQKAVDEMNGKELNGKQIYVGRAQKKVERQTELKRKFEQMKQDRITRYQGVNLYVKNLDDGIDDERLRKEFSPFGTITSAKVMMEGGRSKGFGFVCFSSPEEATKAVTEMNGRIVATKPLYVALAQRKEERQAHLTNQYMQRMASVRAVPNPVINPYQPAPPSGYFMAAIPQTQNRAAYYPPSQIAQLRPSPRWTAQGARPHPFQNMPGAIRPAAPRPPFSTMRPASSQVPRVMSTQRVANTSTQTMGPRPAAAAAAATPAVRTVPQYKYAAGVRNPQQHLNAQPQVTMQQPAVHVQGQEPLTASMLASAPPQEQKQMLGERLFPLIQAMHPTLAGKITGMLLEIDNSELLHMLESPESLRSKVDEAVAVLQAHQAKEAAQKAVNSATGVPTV
Env fusion inh: HIV envelope-mediated fusion inhibition. 1.1% of 360,000 active. inhibition, % at 12.3 µM. HeLa-JRFL Env/CEM21 cell fusion, luciferase;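 active = mean replicate inhibition score of at least 50 and every replicate individually at or above 50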;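 note: 0% = plate neutral controls and 100% = maraviroc near 300 nM; one replicate is shown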
eIF4H inh retest: recorded beside eIF4H inh, whose call it bears; inhibition, %; compound at 20 µM; confirmation average;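 mean of two retest wells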
PABP FP inh retest: recorded beside PABP FP inh, whose call it bears; inhibition, %; compound at 20 µM; confirmation repeats;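 mean of two retest wells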
MT1-MMP act inh RFP: recorded beside MT1-MMP act inh, whose call it bears; RFP signal change, %; measured here: RFP expression control read;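 0 = vehicle wells; hits needed this value within 50% of zero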
Starred values were filed as active, the others as inactive; i = inactive; nt = no result given; + = active, no number. This is a random part of the collection; about 3% have a hit in one of these screens.

Start of the listing, in advance:
SMILES	Rce1 inh	CSC inhib	eIF4H inh	MT1-MMP act inh	MT1-MMP act inh RFP	UUG fidelity	PABP FP inh	Env fusion inh	others
Cc1nn(C)cc1CNC(=O)c1cnn2c(C(F)F)cc(C3CC3)nc12	i	-7.3	-14.8	-5.6	-2.5	7.6	-12.9	nt
CN(C)CCCNc1c2c(nc3ccccc13)CCC2	i	3.4	42.2	-1.1	4.0	4.8	60.3*	2.4	eIF4H inh retest=43.0;PABP FP inh retest=52.5*
Cc1cn(CC(=O)NCCN2CCOCC2)c(=O)[nH]c1=O	nt	nt	nt	4.7	6.0	-13.2	nt	4.6

The list itself, from the first entry:
SMILES	Rce1 inh	CSC inhib	eIF4H inh	MT1-MMP act inh	MT1-MMP act inh RFP	UUG fidelity	PABP FP inh	Env fusion inh	others
Cc1nn(C)cc1CNC(=O)c1cnn2c(C(F)F)cc(C3CC3)nc12	i	-7.3	-14.8	-5.6	-2.5	7.6	-12.9	nt
CN(C)CCCNc1c2c(nc3ccccc13)CCC2	i	3.4	42.2	-1.1	4.0	4.8	60.3*	2.4	eIF4H inh retest=43.0;PABP FP inh retest=52.5*
Cc1cn(CC(=O)NCCN2CCOCC2)c(=O)[nH]c1=O	nt	nt	nt	4.7	6.0	-13.2	nt	4.6
Cc1ccc(-c2cc(=O)c3ccccc3[nH]2)cc1	i	26.4	-0.9	-1.4	-7.2	-8.4	4.0	-208.5
O=C(ON=C1CCSCC1)c1ccccc1	nt	-7.4	nt	0.7	7.2	-16.2	nt	nt
COc1nc(NC(C)=O)nc(C)c1Br	i	-2.8	-6.3	nt	nt	nt	-3.2	-60.8
O=C(NC(=O)c1cc(OCC(F)(F)F)ccc1OCC(F)(F)F)Nc1ccccc1	i	5.8	7.7	-2.0	-1.8	-3.6	-11.9	-16.8
Nc1ncccc1C(=O)OCC(=O)N1CCN(S(=O)(=O)c2ccc(Cl)cc2)CC1	nt	63.3	nt	-11.2	-6.9	-3.6	nt	nt
O=C(NNC(=S)Nc1ccccc1)c1ccc2ncccc2c1	i	-4.0	13.7	0.1	-1.1	nt	-3.9	-25.6
O=C(NC(=S)NCC1CCCO1)c1ccc([N+](=O)[O-])cc1 (configuration not stated)	i	-35.0	8.8	4.9	6.6	nt	5.5	15.2
O=C(NCCc1ccccc1)c1ccc(OCCOc2ccccc2)cc1	i	2.2	-6.0	3.6	3.3	9.0	15.8	nt
CN(C)CCNc1oc(-c2cccc(Cl)c2)nc1C#N	i	3.8	13.3	2.4	9.0	-15.6	-6.7	25.0
COC(c1ccccc1)c1nnc(CCC(=O)NCCc2ccc(Cl)cc2)o1 (configuration not stated)	i	-17.0	-2.5	1.7	-1.0	-1.9	-0.5	16.8
O=S(=O)(NCCc1csc(-c2cccnc2)n1)c1cccc(F)c1	i	2.0	1.5	-2.4	-4.2	-21.0	3.0	-18.2
CC(=O)c1ccc(NC(=O)c2ccc(N3C(=O)c4cccnc4C3=O)cc2)cc1	i	-1.4	15.8	2.9	4.4	-16.6	-3.5	-4.8
Cc1ccc2[nH]c(=O)c(C(c3nnnn3C3CCCC3)N(Cc3cccnc3)Cc3ccco3)cc2c1 (configuration not stated)	i	-3.4	-3.0	-9.9	-7.1	9.9	-3.2	nt
Cc1occc1-c1nnc(SCC(=O)Nc2ccccc2)n1Cc1ccccc1	i	-11.9	4.4	-2.3	-4.4	-3.9	4.6	-5.4
CC(C)Oc1ccc(C(=O)Nc2ncn[nH]2)cc1	i	0.4	-6.6	8.5	4.4	-34.3	-1.8	-9.5
O=C(N/N=C/c1sc(N2CCOCC2)nc1-c1ccccc1)c1ccc(O)cc1	i	-2.7	-1.0	12.1	13.5	nt	-12.1	-15.3
CCNC(=S)Nc1ccc(-c2nc3ccccc3[nH]2)cc1	i	-13.0	-2.3	7.5	0.6	nt	-2.9	-59.9
CC(C)CN(C(=O)COC(=O)CNC(=O)c1ccccc1)c1c(N)n(Cc2ccccc2)c(=O)[nH]c1=O	i	-8.0	nt	-0.5	1.6	-3.0	nt	-9.3
CCCN(CC(=O)Nc1ccccc1C)C(=O)c1ccc(N2CCCC(C)C2)c([N+](=O)[O-])c1 (configuration not stated)	nt	nt	nt	-0.1	-2.5	-5.9	nt	10.6
COc1cccc(-c2ccc(NC(=O)C3CCCN(Cc4ccco4)C3)cc2)c1 (configuration not stated)	i	6.0	-17.4	3.0	-4.0	-8.5	-8.4	-4.7
O=C(CNC(=O)/C(=C\c1ccccc1)NC(=O)c1ccc(Br)cc1)OCc1ccccc1	i	10.3	-6.8	2.0	4.0	-4.1	-3.6	nt
Brc1ccccc1OCCCN1CCCCCC1	i	21.2	4.2	18.9	-1.7	nt	34.3	-0.7
O=C1N(c2ccccc2)CCN1c1ccccc1	i	6.8	-10.5	-1.5	-1.2	-0.8	0.3	-46.2
CCCCN(C=O)c1c(CC)nc2ccc(C(=O)NCc3ccccc3OC)cn12	nt	nt	nt	-0.4	0.9	-13.5	nt	-0.9
CCc1cc2c3c([nH]c2cc1S(=O)(=O)NCCCOC)CC(C)(C)CC3=O	i	-13.9	-10.1	1.7	-7.8	-7.1	-1.8	17.9
CCOc1ccccc1-n1c(SCC(N)=O)nnc1-c1ccccc1	i	5.5	-2.1	0.4	-0.5	nt	-4.6	nt
Cc1ccc(S(=O)(=O)N2CCOCC2)cc1NC(=O)COC(=O)c1cnccn1	nt	nt	nt	-1.1	0.6	-12.0	nt	-13.4
O=C(CSc1ccccc1)NCc1ccc(F)cc1	i	-4.5	-4.2	3.2	-0.1	nt	-0.5	14.5
COc1ccccc1NS(=O)(=O)c1cc(NC(=O)c2ccccc2F)ccc1N1CCOCC1	nt	8.3	-12.1	3.3	-1.0	6.3	-0.1	-95.4
COc1cccc(CNC(=O)C2CCCN(S(=O)(=O)c3c(C)n[nH]c3C)C2)c1 (configuration not stated)	i	nt	-3.9	1.6	-3.2	-0.6	0.4	-20.5
O=C(COc1ccccc1)NCCSCc1ccccc1Cl	i	6.8	5.9	3.5	5.0	14.3	14.3	-7.1
CCOc1ccc(S(=O)(=O)NC2CCCCCC2)cc1	i	-3.4	-6.0	1.7	-3.3	nt	2.8	20.4
CCn1cc(C(=O)N(C)c2ccccc2F)c2cc(OC)c(OC)cc2c1=O	i	-2.9	-8.5	-1.1	-4.6	-0.1	4.6	19.8
CCc1nnc(NC=C2C(=O)OC(C)(C)OC2=O)s1	i	-8.0	-2.0	3.3	2.6	-16.3	4.8	nt
CC(=O)/C(C(=N)N1CCN(c2cccc(Cl)c2)CC1)=C(\C)O	i	10.2	1.6	0.7	2.6	-10.6	-1.2	nt
O=C(Oc1cc(=O)oc2ccccc12)c1ccccc1	i	-7.9	-1.2	-3.1	-7.5	-24.5	6.8	nt
CCCCN(CC)CCNC(=O)Cn1cc2c(n1)-c1c(oc(C(=O)N3CCCC3)c1C)CC2	i	-2.2	nt	0.2	1.8	-14.7	nt	-3.9
CCCCCCN1CC(=O)N2[C@@H](Cc3c([nH]c4ccccc34)C2(C)C)C1=O	i	-8.4	5.7	3.6	-3.1	-1.9	11.0	23.7
C/C(=N/NC(=O)c1cc(Cl)ccc1O)C12CC3CC(CC(C3)C1)C2	i	-5.8	-3.5	3.2	1.2	-2.9	-5.2	nt
COc1ccc(OC2CCN(C(=O)Nc3ccc(C)cc3)CC2)cc1	i	-7.6	-6.4	3.2	-1.6	0.6	1.3	23.8
Clc1ccc(CSc2nnc(-c3cccnc3)o2)cc1	i	nt	1.9	1.1	-2.2	-1.6	1.0	-44.0
COc1ccc(C(=O)NCC(=O)N2CCCC(C(F)(F)F)C2)cc1OC (configuration not stated)	i	-11.6	nt	2.2	5.7	-14.0	nt	9.5
CC(C)N1CCC(=NNC(=O)c2cccs2)CC1	nt	-0.2	-3.4	1.0	4.6	-12.6	-11.1	4.3
COc1cc(C=O)ccc1OCC(=O)Nc1cccc(S(=O)(=O)N(C)c2ccccc2)c1	nt	-16.2	nt	0.5	0.6	-11.6	nt	-24.1
CC(C)Cn1c(N)c(C(=O)COC(=O)/C=C/c2cccs2)c(=O)n(C)c1=O	i	-4.5	-5.0	-5.5	-29.3	nt	-10.9	-14.9
CCCCn1cnc2c1c(=O)[nH]c(=O)n2CCCC	i	4.4	29.9	-0.3	-1.7	-10.7	39.9	nt
Cc1ccccc1N/C=C/C(=C(C#N)C#N)N(C)C	i	nt	-1.7	3.7	5.0	-6.0	1.9	nt
Cc1cccc(OCCCN2C(=O)C(=O)c3cc(C)ccc32)c1	+	18.3	2.2	-2.9	1.2	1.3	1.4	-8.3
CC(CNC(=O)c1cc(COc2ccc3ncccc3c2)on1)c1ccccc1 (configuration not stated)	i	17.8	1.0	-1.9	-32.4	-4.8	4.5	nt
O=C(NCc1ccc(F)cc1)C(=O)c1cn(CC(=O)N2CCCC2)c2ccccc12	i	nt	-41.1	-9.5	-4.1	5.2	-16.4	-1.6
COc1ccc(-c2cc(NC=O)c3ncc(-c4ccc(C(C)=O)cc4)n3c2)cn1	nt	nt	nt	-6.7	-0.5	-21.1	nt	-58.4
O=C(NCC(c1ccco1)N1CCOCC1)c1ccc(F)cc1 (configuration not stated)	i	-1.8	nt	1.1	4.7	-9.6	nt	-35.9
O=C(O)c1cccc(S(=O)(=O)N2CCN(Cc3ccc4c(c3)OCO4)CC2)c1	i	nt	5.8	-6.1	-1.4	-39.2	2.8	-4.5
CCOC(=O)C1CCN(S(=O)(=O)c2cc(C(=O)N3CCCCC3)ccc2OC)CC1	nt	4.4	-6.4	3.4	-0.3	-14.5	-2.5	30.7
CC1(C)CC(NC(=O)c2coc(=O)c(Br)c2)CC(C)(C)N1	i	-11.1	1.7	2.7	0.3	-27.4	12.9	nt
Cc1ccccc1C(=O)NNC(=O)C1CC(=O)N(c2ccc3c(c2)OCCO3)C1 (configuration not stated)	nt	nt	nt	-1.5	-2.6	-7.5	nt	-1.0
CCOC(=O)N1CCC(NC(=O)CCC(=O)N2CCOc3ccccc32)CC1	i	-5.7	-13.8	-3.9	0.8	nt	-15.9	nt
Additional records:
SMILES	Rce1 inh	CSC inhib	eIF4H inh	MT1-MMP act inh	MT1-MMP act inh RFP	UUG fidelity	PABP FP inh	Env fusion inh	others
CN1C(=O)C(C)(C)c2cc(S(=O)(=O)N3CCN(c4ccc(F)cc4)CC3)ccc21	i	-10.5	-5.0	2.0	-2.7	nt	19.4	-3.8
Cc1ccc(C)c(N2CCN(C(=O)C3CCCN(S(=O)(=O)c4cnc[nH]4)C3)CC2)c1 (configuration not stated)	i	-2.7	-2.2	-0.7	-2.9	-13.4	4.7	-24.3
Cc1ccc(-c2nc3n(n2)Cc2ccccc2-3)cc1	i	24.5	0.1	-2.0	-4.9	-48.8	-15.3	-339.8
CC(C)(C)NC(=O)CSc1nnc(-c2ccco2)n1Cc1ccco1	i	4.7	-10.5	9.8	2.6	-14.3	-7.1	-9.5
O=C(c1cc2ccccc2oc1=O)N1CCN(CCc2ccccc2)CC1	i	-4.6	3.4	0.1	3.7	nt	10.8	4.0
Cn1cnc([N+](=O)[O-])c1Sc1nc(N)nc2c1ncn2Cc1ccccc1	nt	nt	nt	5.2	-7.6	-18.1	nt	29.5
CCCCN(C=O)c1c(CC)nc2ccc(C(=O)N(C)Cc3ccccc3)cn12	nt	nt	nt	-0.7	4.6	2.7	nt	-17.3
COc1ccc(NC(=O)CCC(=O)N/N=C/c2cn(C)nc2C)cc1	i	-8.5	7.4	-0.2	0.1	-22.4	-8.5	-0.9
CC(C)(C)NC(=O)NCc1cccnc1	i	-8.2	-12.0	1.1	0.0	nt	-4.3	2.2
Cc1ccc(OC(C)C(=O)N2CC(=O)Nc3ccccc32)cc1 (configuration not stated)	i	nt	1.8	2.0	5.5	-2.7	7.9	7.7
O=S1(=O)NC(=NCc2ccco2)c2ccccc21	i	-6.4	-5.8	3.2	0.2	-14.4	2.5	nt
